# NPYLR7 ag: activates Aedes aegypti NPYLR7 receptor | HEK293T NPYLR7/Galpha15, GCaMP6s calcium fluorescence | activation, % at 10 µM | hit rate 0.15% among 270,000; in the data active means activation above about 40%;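 further: 0% = vehicle and 100% = reference agonist at the receptor; some compounds past the cut are filed as inactive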
# NPYLR7 ag max-min: also measured in NPYLR7 ag; calls as there; activation, %; measured here: Max-Min RFU normalised activation; some inactives read as strong as hits;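 span of the calcium signal over five minutes; 0% = vehicle and 100% = native peptide agonist; compound fluorescence can raise it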
# * marks the source's active call; other numbers are inactive results; & = joins results of further samples.
# The first 4 entries (preview)
SMILES,NPYLR7 ag,NPYLR7 ag max-min
COc1ccc(C2Nc3ccccc3N=C3CC(c4ccccc4)CC(=O)C32)c(OC)c1OC (stereo not given),-6,-13
CCCn1c(=O)n(C)c(=O)c2c(SCC(=O)C(C#N)=C(C)N)nc(C(C)(C)C)nc21,-5,-8
COc1ccc(C(=O)N2CCN(C(c3ccccc3)c3ccc(Cl)cc3)CC2)c(OC)c1 (stereo not given),-1,0
COCCN(Cc1ccc(OC)c(OS(=O)(=O)c2ccc(F)cc2)c1)C(=O)c1ccccc1F,-3,2

# The listing, repeating the preview:
SMILES,NPYLR7 ag,NPYLR7 ag max-min
COc1ccc(C2Nc3ccccc3N=C3CC(c4ccccc4)CC(=O)C32)c(OC)c1OC (stereo not given),-6,-13
CCCn1c(=O)n(C)c(=O)c2c(SCC(=O)C(C#N)=C(C)N)nc(C(C)(C)C)nc21,-5,-8
COc1ccc(C(=O)N2CCN(C(c3ccccc3)c3ccc(Cl)cc3)CC2)c(OC)c1 (stereo not given),-1,0
COCCN(Cc1ccc(OC)c(OS(=O)(=O)c2ccc(F)cc2)c1)C(=O)c1ccccc1F,-3,2
O=C(Nc1ccc2c(c1)OCCO2)c1c2c(nn1C1CCS(=O)(=O)C1)CCC2 (stereo not given),-23,-28
COc1ccc(CC2CCN(C(=O)Nc3cccc(F)c3)CC2)cc1,3,16
Cc1ccsc1C1CC(c2cccs2)=NN1C(=O)c1cccs1 (stereo not given),3,3
CC(=O)Oc1cccc(N2C(=O)c3cccc([N+](=O)[O-])c3C2=O)c1,-5,-12
Cc1[nH]c(=O)[nH]c(=O)c1CN1CCc2onc(-c3ccccc3F)c2C1,0,-4
CC(=O)c1cc(C(=O)OCC(=O)Nc2ccc(Br)cc2)c2ccccn12,7,-5
CC1CCC(=O)/C(=C/c2ccccc2)C1 (stereo not given),2,2
CCCCNC(=O)Cn1nc(C)c([N+](=O)[O-])c1C,10,14
Cc1nnc2ccc(OCCNS(=O)(=O)c3ccc4c(c3)OCCO4)nn12,3,6
COc1ccc(C=C(C#N)C(=O)c2ccccc2)c(OC)c1,2,0
O=C(c1ccc2ccccc2c1)N1CCC2(CC1)SCCN2C(=O)c1ccc(Cl)cc1Cl,-4,-2
CCCn1nc(C(=O)OCc2cc(=O)n3ccsc3n2)ccc1=O,5,1
CC(C)(C)c1ccc(C(=O)N2CCC2(C)C(=O)N2CCCCC2)cc1 (stereo not given),1,0
O=C(NN=Cc1cc(Br)ccc1O)c1ccco1,1,0
CCOc1ccc2ccccc2c1C(=O)Nc1cc(C)nn1-c1nc(CC)cc(=O)[nH]1,9,4
CCn1cc(CNC(=O)[C@H]2C[C@@](C)(C(=O)OC)N(C)[C@H]2c2ccccc2C)cn1,15,7
Cc1nn(-c2ccc3nnc(C)n3n2)c2c1C(c1cccs1)CC(=O)N2 (stereo not given),-12,-14
CCc1nc2ccc(C(=O)NCCOc3ccc(OC)cc3)cn2c1N(CCN(C)C)CC1CC1,-2,-3
CC(C)Oc1ccc(CN2CCC(n3nccc3NC(=O)C3CCCC3)CC2)cc1,13,2
Cc1ccc2c(c1)c(CNc1nc(-c3ccncc3)nc3c1CNC3)nn2C,2,-4
O=C(COc1ccc(Cl)cc1)Nc1nc(-c2ccc(Oc3ccccc3)cc2)cs1,-5,-10
SMILES,NPYLR7 ag,NPYLR7 ag max-min
CCc1cn[nH]c1C1CCN(C(=O)c2cc(OC)nc3ccccc23)CC1,-3,-5
CC1CN(c2cc(Oc3ccc(F)c(F)c3)ncn2)CCN1C(=O)c1ccccc1Br (stereo not given),11,8
Cc1nn(C(C)C(=O)N2CCCC2)c(=O)c2cc3occc3n12 (stereo not given),5,3
COc1ccc(CC(=O)Nc2cc(C)nn2C2CCS(=O)(=O)C2)cc1 (stereo not given),4,4
COc1cc(C(C#N)NC(=O)CCc2ccccc2F)cc(OC)c1OC (stereo not given),11,7
Cc1ccsc1[C@@H]1CCN(C(=O)c2nc3c(s2)CCCC3)C[C@H]1O,2,1
NC(=O)c1ccc(C(=O)N2CCN(c3nccs3)CC2)cc1,1,0
N#Cc1c2n(c(=S)n(-c3ccccc3)c1=O)CCCCC2,-3,-8
Cc1ccccc1C(=O)NC1CCN(c2ccccc2C(=O)NCC2CCCO2)CC1 (stereo not given),15,15
Cc1nc(NCCNS(C)(=O)=O)cc(N2CCCC2)n1,2,-1
COc1cccc(Oc2cc(N3CCN(C(=O)c4ccc(Cl)cc4)C(C)C3)ncn2)c1 (stereo not given),9,9
CC(C)c1cccc(N(C)Cc2cncn2C)c1,8,6
CC(=O)NC1C(=O)N(CCOc2ccc3ccccc3c2)c2ccc(Cl)cc21 (stereo not given),1,1
Cc1nnc(Cn2nc(C3CCNCC3)n(Cc3ccccc3)c2=O)s1,5,4
CCOC(=O)c1sc2nc(C)nc(NCCOC)c2c1C,6,10
COCc1nc(-c2ccc(CN3CCN(C(=O)c4ccc(C)nc4Cl)CC3)cc2)no1,7,16
CCOC(=O)c1cc(-c2cccc(NC(=O)c3c(C)noc3C)c2)n(-c2ccccc2F)n1,19,8
O=C(CN1C(=O)SC(=Cc2ccc(Br)o2)C1=O)N1CCCCCC1,5,12
Cc1nc(C2CCCN2C(=O)C(C)Oc2cccnc2)no1 (stereo not given),1,-1
CCOC(=O)c1c(C)[nH]c(C(=O)COC(=O)c2[nH]c(C)c(C(=O)OCC)c2C)c1C,4,9
O=S(=O)(NCCc1csc2nc(-c3ccccc3F)nn12)c1ccc(F)cc1,4,3
C=c1ccccc1=C1N=C(CO)NO1,-1,270
COCCNC(=O)C1(C)CCCN(Cc2cccc(OC)c2OC)C1 (stereo not given),5,-1
CCN(CC1CCOCC1)C(=O)c1ccc(Cl)cn1,-9,-14
O=C(NNS(=O)(=O)c1ccc(Br)cc1Cl)c1ccco1,2,2
SMILES,NPYLR7 ag,NPYLR7 ag max-min
CC(C)c1noc(C2CCCN(C(=O)c3cccc4ccnn34)C2)n1 (stereo not given),4,3
O=C(CSc1ncnc2c1nnn2Cc1ccc(Cl)cc1)N1CCc2ccccc21,15,13
Cc1ccc(Cc2nc(N3CCN(C(=O)c4ccco4)CC3)c3c(C)nn(-c4ccc(F)cc4)c3n2)cc1,-10,-7
COCCNC(=O)c1ccc(CSc2nnc(-c3ccco3)n2-c2cccc(Cl)c2)cc1,17,17
O=C(c1ncoc1-c1cccs1)N1CCCC1C1CCC1 (stereo not given),-1,-2
Cc1ccccc1-c1cc(C(=O)O)[nH]n1,-3,-3
Cc1ccc(C(NC(=O)C2CCOCC2)c2ccncc2)cc1 (stereo not given),1,-2
CCNC(=S)N/N=C\c1cc(Br)cc(Br)c1OC,-2,-6
CCCCCCC(=O)N1CCN(C(=O)c2cc(-c3ccc(Cl)cc3)n(-c3cccc(F)c3)c2C)CC1,4,7
c1cnc2nc(-c3ccsc3)c(NC3CCCCC3)n2c1,-5,-6
COC(=O)c1ccc(-c2nc(CN(C)C(C)c3ccon3)c(C)o2)cc1 (stereo not given),6&-9,1&-11
Cc1cc(=O)[nH]c(NN=C2CCC(C(C)(C)C)CC2)n1 (stereo not given),-2,-7
COc1cc(CC(=O)N2CCCC3(C2)OCCO3)cc(OC)c1OC,-9,-6
CC(=O)N(Cc1cccnc1)c1nc2cc(C)cc(C)c2s1,-9,-7
O=C(COCc1ccccc1)Nc1nnc(SCc2cccc([N+](=O)[O-])c2)s1,0,2
O=C(NCc1cccc(Cl)c1Cl)c1cncn1-c1cccc(-c2cccc3c2sc2ccccc23)c1,11,2
COc1nc(C)c(C(=O)NC(c2cc(C)ccn2)C2CC2)s1 (stereo not given),-4,-8
COc1ccc(CN(C(=O)c2ccccc2F)C2CC2)cc1OS(C)(=O)=O,30,32
Cc1ccc(C(=O)N2N=C(c3cccnc3)CC2(O)C(F)(F)F)cc1 (stereo not given),-2,-3
CC(Nc1ccc2c(c1)-c1ccccc1C2)C(=O)NCC1CCCCC1 (stereo not given),1,-2
CC(C)N(C(=O)CSc1ccc(NC(=O)C2CC2)nn1)C(C)C,0,2
Cn1cc(-c2ccc3ncc(-c4ccoc4)n3n2)cn1,-4,-7
CCOC(=O)C1=C(N)c2ccccc2CC1(C)CC (stereo not given),0,1
CC(C)NC(=O)N1CCCC(OCc2ccccc2Cl)C1 (stereo not given),-4,1
Cn1c(=O)[nH]c(=O)c2c1nc(N1CCN(Cc3ccc(F)cc3)CC1)n2Cc1ccccc1F,10,4

# Gathered by group: the entries above containing two or more sulfur atoms
SMILES,NPYLR7 ag,NPYLR7 ag max-min
Cc1ccsc1C1CC(c2cccs2)=NN1C(=O)c1cccs1 (stereo not given),3,3
Cc1ccsc1[C@@H]1CCN(C(=O)c2nc3c(s2)CCCC3)C[C@H]1O,2,1
O=S(=O)(NCCc1csc2nc(-c3ccccc3F)nn12)c1ccc(F)cc1,4,3
O=C(COCc1ccccc1)Nc1nnc(SCc2cccc([N+](=O)[O-])c2)s1,0,2

# The listing continues:
SMILES,NPYLR7 ag,NPYLR7 ag max-min
Cc1nc(-c2cccc(C(=O)NC3(C)CCOCC3)c2)cs1,-4,-5
CC=CCSc1nc2c(c(=O)[nH]c(=O)n2C)n1CCOC,-7,5
CC(C)Cc1ccc(C(C)C(=O)OCc2ccccn2)cc1 (stereo not given),-19,-29
CCN(CC)C(=S)SC(C)C(=O)NC1CC1 (stereo not given),4,1
O=C(NC(C(=O)N1CCCCC1)C1CCN(C(=O)CCc2ccccc2)CC1)C1CCCC1 (stereo not given),-6,4
CNC(=O)CN(C(=O)/C=C/c1ccccc1)c1cccc(OC)c1,8,2
COC(=O)[C@@H]1[C@H](C(=O)NC(c2ccc(S(C)(=O)=O)cc2)c2cccc(N(C)C)c2)[C@@H]2C=C[C@H]1C2 (stereo not given in full),-7,-12
C(=NN(c1ccccc1)c1ccccc1)c1ccc2c(c1)OCO2,-10,-10
CC1=C(C(=O)OCC(C)C)C(c2ccccc2Br)C2=C(CC(c3ccccc3)CC2=O)N1 (stereo not given),-6,-6
CCCn1cc(C(=O)NCC(C)C)c2nn(-c3ccccc3)c(=O)c-2c1,8,7
O=C(c1cc(C2CC2)[nH]n1)N1CCCN(C(=O)C2CCC2)CC1,-2,-3
OCC#Cc1ccc(CN2CCC3(CCNCC3)C2)cc1,-2,-6
Cc1nc2ccccc2n1CCNC(=O)C1CCCC1,1,0
CC(C(=O)Nc1ccc(C(C)(C)C)cc1)N(C)CC(=O)NCc1ccco1 (stereo not given),10,6
CCN1C(=O)/C(=C2\SC(=S)N(C(C)C)C2=O)c2ccccc21,-9,-14
CCNC(=O)CCc1nc2cc(S(=O)(=O)N(CC)CC)ccc2n1C,2,15
O=C(CCc1ccc(Cl)s1)OC1CCOC1 (stereo not given),8,6
COc1cc(OC)cc(C(=O)NCc2ccc(C)s2)c1,1,-1
O=C1CNC(=S)N1Cc1ccco1,-1,-2
COc1cc(NCCc2scnc2C)cc(OC)c1OC,-5,-2
Cc1ccc(NS(=O)(=O)c2cc(OCC(=O)Nc3nncs3)c(C)cc2Cl)cc1,10,6
O=C(NC1=NN(c2ccccc2)CC1)Nc1ccccc1F,4,3
CCS(=O)(=O)Oc1cccc(CN(C(=O)C2C[C@H]2c2ccccc2)C(C)C)c1 (stereo not given in full),-5,-3
O=C(NC(c1ccc(F)cc1)c1ccc2ccccc2n1)C1CCN(Cc2ccc(Oc3ccccc3)cc2)CC1 (stereo not given),-7,-6
COc1ccc2nc(-c3ccc(NC(=O)C(c4ccccc4)c4ccccc4)cc3)cn2n1,-7,-11

# Sorted by number of heavy atoms (smallest number first): 6 of the compounds above
SMILES,NPYLR7 ag,NPYLR7 ag max-min
O=C1CNC(=S)N1Cc1ccco1,-1,-2
CCN(CC)C(=S)SC(C)C(=O)NC1CC1 (stereo not given),4,1
Cc1nc2ccccc2n1CCNC(=O)C1CCCC1,1,0
OCC#Cc1ccc(CN2CCC3(CCNCC3)C2)cc1,-2,-6
CC(C)Cc1ccc(C(C)C(=O)OCc2ccccn2)cc1 (stereo not given),-19,-29
CNC(=O)CN(C(=O)/C=C/c1ccccc1)c1cccc(OC)c1,8,2

# Some values from the entries so far.
# Cc1nc(-c2cccc(C(=O)NC3(C)CCOCC3)c2)cs1 | NPYLR7 ag max-min: -5
# Cc1nc2ccccc2n1CCNC(=O)C1CCCC1 | NPYLR7 ag: 1
# CCN1C(=O)/C(=C2\SC(=S)N(C(C)C)C2=O)c2ccccc21 | NPYLR7 ag: -9

# (next part)
SMILES,NPYLR7 ag,NPYLR7 ag max-min
Cn1c(SCc2cc(-c3cccs3)on2)nnc1C1CC1,0,0
Cc1noc(-c2cccs2)c1C(=O)NCc1cccc(F)c1F,-1,2
CCC(CC)C(=O)N(CCN(C)C)Cc1cc(NC(=O)c2cccc(F)c2)ccc1N(C)C,4,8
Cc1c(C)c(C)c(S(=O)(=O)NCc2ccc(N3CCOCC3)nc2)c(C)c1C,10,9
CCC(Cc1ccc(C)cc1)OC(=O)C1CCCN(C(N)=O)C1 (stereo not given),5,4
O=C1NC(=S)N(c2ccc3ccccc3c2)C(=O)/C1=C/c1ccc(-c2cccc(C(=O)O)c2)o1,4,5
CCOC(=O)N1CCN(c2nc(Nc3ccc(C)cc3)c3nccnc3n2)CC1,3,8
Cc1ccc(NC(=O)N(Cc2c(-c3ccccc3)noc2N2CCCCC2)CC2CCCO2)cc1 (stereo not given),6,6
CC(C)(C#N)c1ccc(NC(=O)Cc2ccccc2F)cc1,2,-1
CCN(C)C(=O)C1CSCN1C(=O)C1CC(=O)N(CC2CC2)C1 (stereo not given),5,3

# These rows are one share of the data; the hit share may differ from the screen's.
